NPR1 antag = human Npr1 receptor antagonism; P16066; HEK293 hNpr1 GloSensor cGMP, ANP-stimulated luminescence; Potency, µM (doses to about 46.3 µM), for the others: top-dose activity change, negative = inhibition, usual class: inhibitors; hit rate 1.6% among 76,000; AID 1347048; active = well fitted inhibition curve with a large enough effect; inconclusive = small, poorly fitted or top-dose-only effect; inactive = no such curve, though single readings can be large or run the other way;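 further: nearly all actives have a fitted effect of over 60% in size; nearly all hits also lower the signal before the agonist is added; a reference antagonist and vehicle were the controls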
Target sequence (P16066 whole entry, looked up): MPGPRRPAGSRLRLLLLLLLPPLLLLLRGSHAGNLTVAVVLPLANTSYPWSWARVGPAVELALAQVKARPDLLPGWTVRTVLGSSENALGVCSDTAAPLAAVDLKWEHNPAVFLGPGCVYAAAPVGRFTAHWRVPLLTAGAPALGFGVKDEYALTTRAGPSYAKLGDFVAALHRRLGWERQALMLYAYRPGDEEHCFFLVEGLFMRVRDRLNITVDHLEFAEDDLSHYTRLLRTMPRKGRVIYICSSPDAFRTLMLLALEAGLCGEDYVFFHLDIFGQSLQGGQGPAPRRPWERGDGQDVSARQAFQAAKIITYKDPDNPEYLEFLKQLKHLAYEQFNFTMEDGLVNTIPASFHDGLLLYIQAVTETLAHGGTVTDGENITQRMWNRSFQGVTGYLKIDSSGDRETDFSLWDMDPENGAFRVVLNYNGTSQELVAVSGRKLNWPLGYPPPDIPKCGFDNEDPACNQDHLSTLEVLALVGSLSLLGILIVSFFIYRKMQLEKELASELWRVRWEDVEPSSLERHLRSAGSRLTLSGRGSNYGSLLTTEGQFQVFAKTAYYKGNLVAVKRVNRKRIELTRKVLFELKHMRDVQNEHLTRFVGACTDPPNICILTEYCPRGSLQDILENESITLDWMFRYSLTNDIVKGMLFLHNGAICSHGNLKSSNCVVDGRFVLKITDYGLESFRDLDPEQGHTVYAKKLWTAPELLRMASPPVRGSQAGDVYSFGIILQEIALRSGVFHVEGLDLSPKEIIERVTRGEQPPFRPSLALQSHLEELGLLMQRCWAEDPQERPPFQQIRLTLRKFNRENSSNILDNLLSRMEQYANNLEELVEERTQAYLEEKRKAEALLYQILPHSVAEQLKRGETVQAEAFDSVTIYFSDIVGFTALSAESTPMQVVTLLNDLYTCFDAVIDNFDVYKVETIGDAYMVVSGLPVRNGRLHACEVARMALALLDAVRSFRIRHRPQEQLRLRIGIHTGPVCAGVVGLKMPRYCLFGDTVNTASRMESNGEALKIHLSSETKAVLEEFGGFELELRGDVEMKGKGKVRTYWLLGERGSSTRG
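HEK293 cells stably expressing human Npr1 and cGMP GloSensor pGS-40F, loaded 2 h with 2% GloSensor reagent, given compound 30 min at room temperature. Luminescence read before and 20 min after 0.1 nM hNppA.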
* marks the source's active call; other numbers are inactive results; ? = inconclusive; [ ] = another dose, or the depositor's remark. On the % scale 0 is the no-effect control and ±100 the full control effect; potency means the concentration at half of the fitted maximal effect. This is a subset. The share of hits here may be higher or lower than overall.

SMILES	NPR1 antag
COCCNC(=O)CCCN1C(=O)COc2ccc(C(=O)COc3ccccc3OC)cc21	-3.8%
COc1cccc(CN2CCC3(CC2)CN(c2ncccn2)CC3CO)n1 (stereo unspecified)	1.8%
O=C1NCCCCCCN(Cc2ccncc2)[C@@H]2CN(C(=O)Nc3ccccc3F)CC[C@H]12	1.0%
CN1c2cc(C(=O)NC3CCCCC3)ccc2C(=O)N2CCCCCC21 (stereo unspecified)	1.4%
CCCCCCNC(=O)Cc1csc2nc(C)c(-c3cc(C)n(-c4ccc(F)cc4)n3)c(=O)n12	-16.4%
COc1cccc(CN2C(=O)OC3(CCN(C(=O)CCc4cccnc4)CC3)C2(C)c2cccnc2)c1 (stereo unspecified)	3.0%
CN1CCN(c2cc(=O)c3ccnc(-c4cccc(CO)c4)c3o2)CC1	-3.5%[70.6 µM]
COCCN(Cc1nccs1)Cc1cn[nH]c1-c1ccc(F)cc1	4.5%
O=C(NCCc1ccccc1)N1CCC(Oc2ncccc2C(=O)N2CCOCC2)C1 (stereo unspecified)	-3.4%
O=[S+]([O-])(Nc1cccnc1)c1ccc2c(c1)OCCN(Cc1cccs1)C2	?
Cn1ncc2c(N[C@@H]3CS(=O)(=O)C[C@H]3O)nc(-c3ccncc3)nc21	7.0%
Cc1cc(S(=O)(=O)N2CC(C(=O)NCc3ccncc3)C3(CCOCC3)C2)ccc1F (stereo unspecified)	-2.7%
O=C(COc1ccc(-c2nnc3n2CCCC3)cc1)NCc1ccccc1	6.5%
CC(C)OCCCNC(=O)[C@H]1CN(Cc2ccccc2)C[C@H]1C(=O)O	0.8%
COc1ccc(C(=O)N[C@H]2[C@H](O)[C@H](O)C[C@@H]2c2ccc(C(F)(F)F)cc2)cc1	-26.7%[70.6 µM]
COC(=O)[C@@H]1Cc2ncn(Cc3ccc(Cl)cc3)c2CN1C(=O)c1cccs1	-21.7%[70.6 µM]
Cc1cccc(CNC(=O)[C@@]23CCCC[C@H]2N(C)C(=O)CC3)c1	-2.7%
Cc1ccccc1-c1nccn2c(C3CN(C(=O)c4cc5ccccc5[nH]4)C3)ncc12	-27.8%[70.6 µM]
Cc1ccc(C(=O)N2CCCC2c2nc(CCOCC3CCOCC3)no2)s1 (stereo unspecified)	-5.7%
O=C1CCN(C(=O)CCc2nc3ccccc3[nH]2)CCCCCCN1	-1.1%
O=C1CCN(C(=O)CCCc2c[nH]c3ccccc23)CCCOCCN1	-0.5%
O=C(c1n[nH]c2c1CCCCCC2)N1CCC(c2nc(C3CCOCC3)no2)C1 (stereo unspecified)	-2.9%
CC(C)NC(=O)CCC[C@@H]1[C@H]2CCCN3CCC[C@@H](CN1Cc1cccnc1)[C@@H]23	10.0%
CCN(CC)CCNC(=O)C1CCCN(S(=O)(=O)c2ccccc2)CCC(=O)NCC1 (stereo unspecified)	2.4%

Another view of part of the listing above:
SMILES: O=C1CCN(C(=O)CCCc2c[nH]c3ccccc23)CCCOCCN1
  NPR1 antag: -0.5%
SMILES: Cc1ccc(C(=O)N2CCCC2c2nc(CCOCC3CCOCC3)no2)s1 (stereo unspecified)
  NPR1 antag: -5.7%

Remaining list, next part.
SMILES	NPR1 antag
COCC1CCCN(C(=O)c2ccc(-c3c(OC)cc(C)cc3OC)nc2)C1 (stereo unspecified)	1.4%
O=C(Nc1cccc(Cl)c1)N1CCC(n2cnnc2C2CC2)C1 (stereo unspecified)	3.5%
CCCc1cc(C(=O)N[C@H]2COC[C@H]2Cc2cc(C)no2)cs1	-1.1%
O=C(C[C@@H]1O[C@H](CNCc2cccc(Cl)c2)[C@@H](O)[C@H]1O)NC1CC1	-4.2%[70.6 µM]
O=C(N1CCC(c2nc(C3CCOCC3)no2)C1)C1(c2ccccc2)CC1 (stereo unspecified)	15.1%
Cc1c(-c2ccccc2F)[nH]c2ccc(CNC(=O)CCc3cnccn3)cc12	-3.7%
Cn1cc(-c2cc(=O)c3ccnc(NCc4ccc5c(c4)OCO5)c3o2)cn1	0.2%[70.6 µM]
O=C1CCCN1C1CCN(Cc2cccnc2)CC1	1.3%[70.6 µM]
O=C(CCn1ccn2nc3c(c2c1=O)CCCC3)Nc1ccc(F)cc1	-6.1%
CCN(CC1CCOCC1)C(=O)c1cccnc1SC/C=C/c1ccccc1	-4.6%
COc1ccc(CNC(=O)Cn2c(C)cc3nc4n(c(=O)c32)CCC4)cc1OC	-2.3%
O[C@@H]1CC(CNCc2ccc(Cl)cc2)(COc2cccnc2)C[C@@H]1O (stereo partly specified)	2.0%
O=C(O)CCC1CCN(C(=O)c2ccccc2Cl)CC1	-0.5%
CCC(C)NC(=O)C1COC2(CCN(C(=O)c3ccc(F)cc3)CC2)N1C(=O)c1ccc(C)cc1 (stereo unspecified)	-1.0%
COc1ccccc1CN1CCc2nc(C(C)C)nc(-c3ccc(O)cc3)c2C1	-3.8%
CCC(=O)Nc1ccc(C2(C(=O)NCC(C)C)CCCCC2)cc1	2.8%
CCC1(CC)CCN(C(=O)CC2COc3ccc(C(=O)N(C)C)cc3N2C)C1 (stereo unspecified)	2.1%
Cn1c(C(=O)NCc2cccnc2)cc2c1CCN(Cc1ccccc1)C2	5.3%
CCC(CC)NC(=O)C1CCCN(S(=O)(=O)c2ccccc2)CCC(=O)NCC1 (stereo unspecified)	0.5%
CN(CCC1CCOCC1)C(=O)c1cc(COc2ccccc2F)[nH]n1	3.5%
Cc1ccc(-c2[nH]ncc2CN2C[C@@H](Oc3ccccc3)C[C@@H]2C(=O)N2CCOCC2)cc1	-12.7%
CCc1nnc(CN(C)c2cc(C3CC(O)C3)nc(N)n2)o1 (stereo unspecified)	4.9%
CN(Cc1ccc(-c2ccccc2)cc1)Cc1ccnn1C	20µM*
COc1ccc(NC(=O)N2CC(c3noc(-c4ccccc4)n3)C2)c(C)c1	-12.5%
Cc1ccccc1NC(=O)C1=NO[C@@H]2CN(CCc3ccccc3)C[C@H]12	-8.1%[70.6 µM]
CCNc1cc(N2CCC(CCC(=O)NCCc3cccnc3)CC2)ncn1	-12.7%
CC(=O)N1CCC[C@H](n2c(=O)n(C)c3cccnc32)C1	2.0%
CN[C@@H](CO)C(=O)NCc1nc(-c2ccc(C)cc2)c(-c2ccccn2)[nH]1	-0.2%
Cc1ccc(-c2nc(C3CC(=O)N(c4ccc(Cl)cc4)C3)no2)c(C)c1 (stereo unspecified)	-2.6%
O=C(COc1ccccc1)N1CC[C@H]2COC(=O)N2c2ccccc2C1	5.2%[70.6 µM]
COc1ccc(OCC2(C)COc3ccc(C(=O)N(C)c4ccccc4)cc3N2)cc1 (stereo unspecified)	?
COc1cccc(C(=O)NC2CCN(c3cnn(C)c(=O)c3)CC2)c1	2.6%
COc1ccc2[nH]c3c(c2c1)CCNC31CCN(C(=O)c2sc(C)nc2C)CC1	7.5%
COc1ccc(N2CC(C(=O)N3CCC(C(=O)N4CCN(Cc5ccccc5)CC4)C3)NC2=O)cc1 (stereo unspecified)	0.0%
CCCCNC(=O)C1CCCN(C2CCN(C3Cc4ccccc4C3)CC2)C1 (stereo unspecified)	14.0%
O=C(c1cccc(C(F)(F)F)c1)N1CCOCC2(CN(Cc3ccccc3)C2)C1	-3.0%[70.6 µM]
C[C@H]1[C@@H]2[C@@H](O)C([C@H](C)C(=O)NCc3ccco3)CC[C@@]2(C)CC[C@@H]1NC(=O)c1ccccn1 (stereo partly specified)	-5.2%
CC(C)(C)c1ccc(C(=O)N2CCN(C(=O)c3nnn4c3COC(c3ccccc3)C4)CC2)cc1 (stereo unspecified)	-17.8%
COc1ccc(N2CCN(C(=O)C3CC(=O)N(c4n[nH]c5cccc(F)c45)C3)CC2)cc1 (stereo unspecified)	-15.4%
CNC(=O)N1CCC(Cc2ncc(C)n2C2CC2)C1 (stereo unspecified)	-0.2%
COCCn1c(C)cnc1CCNC(=O)NCC(C)C	3.6%
COCCNC(=O)c1nc2c(o1)CCN(Cc1ccc(OC)cc1)CC2	-2.3%[70.6 µM]
O=C(c1ccoc1)N1CCCC(CN2CCCC2)CC1 (stereo unspecified)	2.4%
Cc1nc2scc(CC(=O)NCCC(C)C)n2c(=O)c1-c1cc(C)n(-c2ccc(F)cc2)n1	-13.9%
O=C(NC[C@H]1O[C@H](Cc2cc(-c3ccccn3)on2)CC[C@@H]1O)c1ccc2c(c1)OCO2	-5.4%
COc1cc(Cl)ccc1C(=O)N1CCC(Cc2nc(-c3ccc(F)cc3)no2)CC1	5.62µM*
N#Cc1ccccc1CN1CC[C@H]2C(=O)NCCCCCCN(Cc3ccncc3)[C@@H]2C1	1.1%
COc1ccccc1C(=O)N1CCN(C(=O)c2nnn3c2COC(c2ccccc2)C3)CC1 (stereo unspecified)	-15.2%
O=C(COc1ccc(Cl)cc1)N1CCC[C@H]1c1nc(-c2ccc(F)cc2)no1	-19.1%
CC(C)NC(=O)c1ccnc(-c2nnc3ccc(Nc4ccccc4)nn23)c1	1.5%[70.6 µM]
Cc1cc2nc3n(c(=O)c2n1CC(=O)Nc1ccc(C(C)C)cc1)CCCCC3	5.1%
COc1ccc(CNC[C@H]2O[C@H](Cc3cc(-c4cccc(O)c4)on3)CC[C@@H]2O)cc1	-25.2%[70.6 µM]
Cc1oc2c(c1C(=O)N(C)C)CN(C(=O)c1ccnn1C)CC2	-1.1%
CCOc1ccc2c(n1)CCN(C(=O)c1cccnc1)C2	6.0%
CSCCNC(=O)c1coc(COc2cccc(C(F)(F)F)c2)n1	-17.1%
O=c1[nH]cccc1-c1nccc(C2(c3ccccc3Cl)CCNCC2)n1	-0.1%
COc1ccc(C(=O)NC(C(=O)NC(C)C)C2CCN(C(=O)c3ccccc3C)CC2)cc1 (stereo unspecified)	-0.2%
CCCc1nc(C(=O)NCC2CCN(Cc3ccc(C)o3)CC2)cs1	0.6%
COc1cc(OC)c(Nc2ncncc2-c2nc(-c3ccccc3)no2)cc1Cl	5.5%
CN(C(=O)[C@@H]1C[C@@H](c2ccc(F)cc2)N(CCOc2ccccc2)C1)c1cccnc1	-0.3%[70.6 µM]

Fetched one by one from above (5):
SMILES	NPR1 antag
CC(=O)N1CCC[C@H](n2c(=O)n(C)c3cccnc32)C1	2.0%
Cc1ccc(-c2[nH]ncc2CN2C[C@@H](Oc3ccccc3)C[C@@H]2C(=O)N2CCOCC2)cc1	-12.7%
CCN(CC1CCOCC1)C(=O)c1cccnc1SC/C=C/c1ccccc1	-4.6%
Cc1ccc(-c2nc(C3CC(=O)N(c4ccc(Cl)cc4)C3)no2)c(C)c1 (stereo unspecified)	-2.6%
CCCc1cc(C(=O)N[C@H]2COC[C@H]2Cc2cc(C)no2)cs1	-1.1%

Returning to the listing, repeating the 2 entries before the break.
SMILES	NPR1 antag
COc1cc(OC)c(Nc2ncncc2-c2nc(-c3ccccc3)no2)cc1Cl	5.5%
CN(C(=O)[C@@H]1C[C@@H](c2ccc(F)cc2)N(CCOc2ccccc2)C1)c1cccnc1	-0.3%[70.6 µM]
Cc1cnc(C(=O)N[C@@H]2CCC[C@@H]2C(=O)NCC2CCCCC2)cn1	1.2%
N#Cc1cccc(NC(=O)N[C@H]2[C@H](O)[C@@H](N3CCCCC3)[C@@H]3OC[C@H]2O3)c1	0.7%[70.6 µM]
NC(=O)[C@@H](Cc1c[nH]c2ccccc12)NC(=O)[C@H]1CN(C(=O)C2CCNCC2)CCN1C(=O)N1CCOCC1	0.9%
CCc1cccc2c(C(CC(=O)NCCc3ccc(OC)c(OC)c3)c3cccc(OC)c3)c[nH]c12 (stereo unspecified)	-14.7%
COCCNc1ncc(-c2cccc(C(C)=O)c2)c2c1OCC2	-0.3%[70.6 µM]
Cc1cnc(CCNC(=O)c2ccc(C#N)cc2)n1C1CC1	2.6%
COc1ccc(CNC(=O)c2cnc3c(c2)N(C(=O)Cc2ccc(C(C)C)cc2)CCC3)cc1OC	?
CCn1nccc1C(=O)N1C[C@@H](Oc2ccccc2)C[C@H]1C(=O)NC1CC1	-0.9%
c1cc2nsnc2cc1CN1CCCN(C2CCCC2)CC1	-7.4%
CCC(CC)C(=O)N1CCC2(CC1)C(=O)N(C)c1ccccc12	-5.3%
COc1nccnc1NC1CCN(C(=O)c2ccc3nc[nH]c3c2)CC1	3.1%
O=C(NCCn1cccn1)c1ccc(S(=O)(=O)N2CCC(O)C2)cc1 (stereo unspecified)	2.4%
O=C1CC(c2ccccc2)N(C(=O)CNC(=O)c2ccoc2)CCCCCCN1 (stereo unspecified)	-0.4%
O=C(Cc1c[nH]c2ncc(-c3ccccc3)cc12)NCCc1ccccc1	?
Cc1cccc(C(=O)NC2CCN(c3cc(-c4ccccc4)[nH]n3)CC2)c1	0.0%
CN1c2cc(C(=O)Nc3cc(F)ccc3F)ccc2C(=O)N2CCCCCC21 (stereo unspecified)	-5.9%
Cn1nc(C2CCCN(C(=O)C3CCOCC3)C2)n(C2CCCC2)c1=O (stereo unspecified)	3.3%
Cc1noc(C)c1-c1cc2c(cc(-c3ccccc3)n2C)c(-c2cnn(C)c2)n1	-22.1%[70.6 µM]
COCC(=O)N1CCC2(CC1)SCC(=O)N2c1ccc(OC)cc1	-8.2%
O=C(Cc1c[nH]c2ncc(-c3cccnc3)cc12)NCCc1ccccc1	-11.6%[70.6 µM]
Cn1nc2n(c1=O)CCN(Cc1ccc(Br)s1)CC2	-0.6%
CC1CCC2(CC1)NC(=O)N(CC(N)=O)C2=O (stereo unspecified)	-7.0%
Cc1c(CN(C)Cc2cccc3ncccc23)c(=O)n(-c2ccccc2)n1C	-0.5%
Cc1cc(C)c(S(=O)(=O)N2CC(c3nc(-c4ccncc4)no3)C2)c(C)c1	14.1µM*
Cc1noc(C)c1CCNC(=O)C1CCN(C(=O)c2ncn3c2COC(c2ccc(F)cc2)C3)CC1 (stereo unspecified)	6.1%
O=C1NCN(Cc2ccc(Cl)cc2)C12CCN(Cc1ccccc1)CC2	11.2µM*
O=C(c1ccoc1)N1CCCC(n2cc(-c3nc(C4CC4)no3)nn2)C1 (stereo unspecified)	1.6%
Cc1ccc(-n2c(C3CCN(C(=O)c4cccc(Cl)c4)CC3)n[nH]c2=O)cc1	2.5%
